# Bm FixLJ act = activators of Burkholderia fixLJ two-component system; hit rate 0.3% among 29,000; B. multivorans fixK-promoter GFP reporter, 18 h; hits give high values; AID 1918990; z-score (concentration not given with the values);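 active = replicate mean overnight rise in green fluorescent reporter signal, 3 or more SD over negative controls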;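 note: score is relative to vehicle wells of the plate; 300 nL library stock went into each well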
# * = called active by the depositor.
SMILES,Bm FixLJ act
Cc1ccc(NC(=O)C2CCCN2S(=O)(=O)c2cccc3cccnc23)cc1C (configuration not stated),-2.08
COCC(C)N(Cc1cccc(C)c1)C(=O)c1n[nH]c(=O)c2ccccc12 (configuration not stated),0.99
O=C(O)CCCNc1cc(N2CCN(C3CCCCC3)CC2)c2noc3c2c1C(=O)c1ccccc1-3,-8.89
COc1ccc2c(c1)-c1nc(NC(=O)c3cccc(Br)c3)sc1CC2,-0.27
CCOc1ccc(NC(=O)CSc2oc(-c3cccs3)nc2S(=O)(=O)c2ccc(C)cc2)cc1,1.23
COc1ccc(CNC(=O)CN(C)S(=O)(=O)c2ccc3c(c2)c(=O)n(C)c(=O)n3C)cc1,-1.23
Cc1ccc2oc(=O)c3cc(C(=O)NCCc4ccc(Cl)cc4)sc3c2c1,-0.11
COc1ccc(C(CNC(=O)c2oc3ccc(Cl)cc3c2C)N2CCCCC2)cc1 (configuration not stated),-1.23
CCc1ccc(NC(=O)CSc2nc(C)c(C(=O)Nc3ccc(Cl)cc3)c(-c3ccc(OC)cc3)c2C#N)cc1,1.15
Cc1cc(C(=O)N2CCC3(CC2)c2nc[nH]c2CCN3C(=O)C2CC2)c(C)o1,1.88
COc1cccc(-c2nc(S(=O)(=O)c3ccc(C)cc3)c(N3CCCCC3)o2)c1,-0.16
Cc1ccc2ncc(C(=O)c3ccc(C)c(C)c3)c(S(=O)(=O)c3ccc(F)cc3)c2c1,-0.74
COc1ccccc1CNC(=O)c1ccc(CSc2nc3ccncc3n2Cc2cccc(F)c2)cc1,1.11
Cc1sc(-c2ccno2)cc1S(=O)(=O)N1CC2CCCC(C2)C1,1.03
COc1ccc2c(c1)CCOC21CCN(C(=O)c2cncc(C)c2)CC1,0.21
Cc1cccc(C)c1NC(=O)c1cc2sccc2n1Cc1ccc(F)cc1,0.83
COc1cccc2cc(S(=O)(=O)c3ccc(F)c(C)c3)c(=O)oc12,0.5
CC(C)c1ccc(S(=O)(=O)c2cnc(SCC(=O)Nc3ccc4c(c3)OCCO4)[nH]c2=O)cc1,0.36
CC(=O)c1cccc(NC(=O)[C@H](Cc2ccccc2)N2Cc3ccccc3C2=O)c1,-2.06
O=C(CCC1N=C2c3ccccc3N=C(SCc3ccc(Cl)cc3)N2C1=O)N1CCN(c2ccccc2)CC1 (configuration not stated),-1.17
Cc1nccn1CCNC(=O)C1CC(c2ccccc2)N2CCC[C@@H]12 (some centres not stated),0.45
CCN(CC)CCNC(=O)Cn1cnc2sc(C)c(S(=O)(=O)N3CCC(C)CC3)c2c1=O,-0.81
CCn1cc(C(=O)NCc2ccc(Cl)cc2)c(=O)c2cc(S(=O)(=O)N(C)C3CCCCC3)ccc21,-2.22
COc1cc(NC(=O)CN(c2cc(C)cc(C)c2)S(=O)(=O)c2c(C)[nH]c(=O)[nH]c2=O)cc(OC)c1,-0.93
CNC(=O)c1c(NC(=O)c2cc(=O)c3cc(C)c(C)cc3o2)sc2c1CCCC2,-0.96
O=C(Nc1cccc(C(F)(F)F)c1)C1CCN(S(=O)(=O)c2cccc3nsnc23)CC1,-0.78
Nc1c(C(=O)Nc2ccccc2F)sc2nc3c(cc12)CCCCCC3,-1.29
COc1ccc(S(=O)(=O)c2cn(Cc3ccccc3)c3cc(F)c(F)cc3c2=O)cc1,-0.56
COc1ccc(CCNC(=O)CSc2nc(-c3ccc(F)cc3)cc(C(F)(F)F)n2)cc1OC,-0.64
CCn1ccc(C(=O)N2CCC3(CCC(=O)N(Cc4ccncc4)C3)CC2)n1,-0.22
Cc1ccc(CNC(=O)Cn2c(=O)n(-c3ccc(Cl)cc3)c(=O)c3c(C)c(C)sc32)cc1,0.06
COc1ccccc1NC(=O)CSc1oc(-c2cccs2)nc1S(=O)(=O)c1ccc(C)cc1,-1.39
CC(=O)c1c(C)n(S(=O)(=O)c2ccc(Cl)cc2)c2ccc(NS(=O)(=O)c3ccc(Cl)cc3)cc12,-0.71
Cc1ccc(-c2nnc(Nc3ccccc3)c3ccccc23)cc1S(=O)(=O)N1CCN(C)CC1,-0.79
CN(Cc1ccc2nsnc2c1)C(=O)NCCCCN1CCCC1,-1.24
CCc1n[nH]c(CN2CCCN(C(=O)c3ccc(Cl)cn3)CC2)n1,-1.51
COc1ccc(S(=O)(=O)c2nnn(-c3cccc(Cl)c3)c2N)cc1,-3.58
COC(=O)c1cccc(CN2C(=O)SC(Nc3ccc(Cl)cc3)C2=O)c1 (configuration not stated),-0.75
CC1(C(=O)NC2CCCCC2)Cc2ccccc2C(=O)N1Cc1ccccc1Cl (configuration not stated),-1.94
COc1cc(NC(=O)Cn2nc(C(F)(F)F)c3c2CCCC3)c(OC)cc1Cl,-0.69
CC(C)CSc1nnc(-c2ccccc2)c(-c2ccccc2)n1,1.62
CCC(=O)N1CCc2cc(Br)cc(S(=O)(=O)N3CCN(c4cc(C)ccc4C)CC3)c21,-0.62
CCOC(=O)c1ccc(NC(=O)CSc2nnc(CNC(=O)c3ccc(OC)cc3)n2CC)cc1,-0.2
CCOc1ccc(NC(=O)c2c(NC(=O)c3ccccc3Br)sc3c2CCC(C)C3)cc1 (configuration not stated),-0.24
CN(C)c1nc2c(c(N3CCC(OCc4cccnc4)CC3)n1)CCCC2,0.83
CCOc1ccc(NC(=O)CSc2nnc(CNC(=O)c3c(F)cccc3Cl)o2)cc1,-0.84
CCOc1ccc(CCNC(=O)C2CCN(Cc3nc(-c4ccc(OC)c(OC)c4)oc3C)CC2)cc1OCC,-1.2
Cc1cc(C)c2c(n1)sc1c(=O)n(-c3cc(Cl)ccc3C)nnc12,-2.58
COc1ccc(NC(=O)CN(C)S(=O)(=O)c2cnc[nH]2)cc1,-0.4
Cc1ccc(C(=O)CSc2nc(-c3ccccc3)nc3c2CCCC3)c(C)c1,-0.81

# Reprinted from the part before: five entries; new compounds follow.
SMILES,Bm FixLJ act
CCOc1ccc(NC(=O)CSc2nnc(CNC(=O)c3c(F)cccc3Cl)o2)cc1,-0.84
CCOc1ccc(CCNC(=O)C2CCN(Cc3nc(-c4ccc(OC)c(OC)c4)oc3C)CC2)cc1OCC,-1.2
Cc1cc(C)c2c(n1)sc1c(=O)n(-c3cc(Cl)ccc3C)nnc12,-2.58
COc1ccc(NC(=O)CN(C)S(=O)(=O)c2cnc[nH]2)cc1,-0.4
Cc1ccc(C(=O)CSc2nc(-c3ccccc3)nc3c2CCCC3)c(C)c1,-0.81
CCSc1nnc2c(n1)OC(c1sccc1C)N(C(C)=O)c1ccccc1-2 (configuration not stated),-2.21
Fc1ccccc1C1=NC(c2ccc(C(F)(F)F)cc2)=Nc2ccccc2N1,-2.57
Cc1noc(C)c1C1CCCN1C(=O)CSc1nnc(N)s1 (configuration not stated),-1.6
COc1cccc(-c2cc(C(=O)N3CCCC3c3cccnc3)[nH]n2)c1 (configuration not stated),-1.3
O=C(N[C@@H](CO)[C@H](O)c1ccc([N+](=O)[O-])cc1)C(Cl)Cl,-5.47
CCOc1ccc(CNC(=O)c2nn(-c3ccc(OC)cc3)c(=O)c3c2c2ccccc2n3C)cc1,1.45
CC(=O)NCCCC(=O)N1CCCC2(C1)C(=O)N(C)c1ccccc12 (configuration not stated),-1.22
CCOC(=O)c1c(NC(=O)CSc2cn(CCNC(=O)c3ccc(OC)c(OC)c3)c3ccccc23)sc2c1CCC2,-0.78
Cc1nc2nc(NCc3cccc(Br)c3)[nH]n2c(=O)c1Cc1ccccc1,-2.41
O=C(O)C1c2nc[nH]c2CCN1C(=O)CCN1CCCCC1 (configuration not stated),-0.84
Cc1cccc(-c2noc(CN(C(C)C)S(=O)(=O)c3ccc(Br)cc3)n2)c1,-0.98
Cc1ccccc1Cn1nnc2c(=O)[nH]c(C3CCN(C(=O)c4ccccc4)CC3)nc21,-1.04
O=C(CSCn1nnc2c(=O)[nH]c(Cc3ccc(F)cc3)nc21)Nc1ccccc1,-1.26
Cc1ccc(C(=O)N2CCOC(CO)C2c2ccccc2)n1C(F)F (configuration not stated),0.48
Cc1nn(C)c(C)c1CN(C1CC1)S(=O)(=O)c1ccc(C#N)cc1,-2.42
CC1CCC(NC(=O)Cn2ncc3c4ccccc4n(Cc4ccc(F)cc4)c3c2=O)CC1 (configuration not stated),-1.27
CCOc1ccc(CNC(=O)c2ccc3c(c2)N(Cc2ccccc2)CCS3)cc1,-0.01
COc1ccc(-n2c(C)c(C(C)=O)c3cc(OC(=O)c4ccc(C)cc4)ccc32)cc1,-1.85
CCOC(=O)c1c(C)n(-c2ccccc2)c2ccc(OC(=O)c3cccc(C)c3)cc12,-0.99
CCc1ccccc1NC(=O)Cc1cn(C)c2ccccc12,-1.97
CCOC(=O)Cn1c(=O)oc2cc(S(=O)(=O)N3CCN(c4ccc(F)cc4)CC3)ccc21,0.21
Brc1ccc(-n2nc(-c3ccccc3)c3cnc4cc5c(cc4c32)OCO5)cc1,1
O=C(O)CCCO,0.02
Cc1ccccc1Cn1c2ccccc2c2cnn(CC(=O)NC3CCCCCC3)c(=O)c21,-1.25
Cc1ncnc(C)c1C(=O)NCC1CCCN(c2nnc(C)c3ccccc23)C1 (configuration not stated),-0.4
O=C(c1cc(Cl)ccc1O)N1CCC(CO)(CN2CCCC2)CC1,1
CCCn1cc(-n2ccnc2-c2cccc(OCCO)c2)cn1,-0.06
COc1ccc(CNC(=O)CN(c2ccc(C(C)C)cc2)S(=O)(=O)c2c(C)nn(C)c2C)cc1,-0.48
Cc1ccc2oc(C(=O)Nc3ccc(S(=O)(=O)N4CCCC(C)C4)cc3)cc(=O)c2c1 (configuration not stated),-1.01
O=[N+]([O-])c1cc([As](=O)(O)O)ccc1O,-0.95
Cc1ccccc1Cn1c(CCCNC(=O)C2CCCCC2)nc2ccccc21,-2.64
Cc1ccc(CNC(=O)C2CCCN(S(=O)(=O)c3cccc4nsnc34)C2)cc1 (configuration not stated),0.52
CC1CCc2[nH]nc(C(=O)N3CCC(Oc4ccc(F)cc4)CC3)c2C1 (configuration not stated),0.27
Cc1ccc(NC(=O)C(C)Sc2nc(=O)cc(N)n2-c2ccccc2)cc1 (configuration not stated),-3.03
Cc1cc(OCCCn2c(CCNC(=O)C3CCCCC3)nc3ccccc32)ccc1Cl,1.3
Cc1ccc(C(=O)N2CCc3nc(-c4ccc(C(N)=O)cc4)[nH]c3C2)cc1,-0.19
O=C(NC(Cc1cc(=O)[nH]c2ccccc12)C(=O)O)c1ccc(Cl)cc1 (configuration not stated),-0.82
COc1ccc(NC(=O)C(=O)NCC2(c3ccc(OC)c(OC)c3)CCCC2)cc1,0.02
O=C(CCS(=O)(=O)c1nc(-c2ccc3c(c2)OCO3)cc(C(F)(F)F)n1)Nc1ccc(Br)cc1,-0.59
CCOC(=O)c1cc2c(=O)n3ccccc3nc2n(C(C)C)c1=NC(=O)c1cc2ccccc2o1,-1.14

# Six structures from above, arranged by count of non-hydrogen atoms, high to low:
SMILES,Bm FixLJ act
CCOC(=O)c1cc2c(=O)n3ccccc3nc2n(C(C)C)c1=NC(=O)c1cc2ccccc2o1,-1.14
Cc1cc(OCCCn2c(CCNC(=O)C3CCCCC3)nc3ccccc32)ccc1Cl,1.3
COc1ccc(NC(=O)C(=O)NCC2(c3ccc(OC)c(OC)c3)CCCC2)cc1,0.02
Cc1ccc(CNC(=O)C2CCCN(S(=O)(=O)c3cccc4nsnc34)C2)cc1 (configuration not stated),0.52
Cc1ccc(NC(=O)C(C)Sc2nc(=O)cc(N)n2-c2ccccc2)cc1 (configuration not stated),-3.03
CC1CCc2[nH]nc(C(=O)N3CCC(Oc4ccc(F)cc4)CC3)c2C1 (configuration not stated),0.27

# Next section
SMILES,Bm FixLJ act
COc1ccc(CCNc2nc(-c3ccccc3OC)cc(C(F)(F)F)n2)cc1OC,1.08
CCOc1ccc(CCn2c3c(c(=O)[nH]c2=O)C(NC(=O)c2ccccc2)(C(F)(F)F)C(=O)N3)cc1OCC (configuration not stated),-0.73
Cc1cccc(N(C)S(=O)(=O)c2ccc3c(c2)NC(=O)CC(=O)N3)c1,-0.16
COc1cccc(Oc2nc3c(c(=O)n(Cc4ccccc4Cl)c(=O)n3C)n2C)c1,-2.62
Cc1cc(OC(C)C(=O)N(Cc2ccc(N(C)C)cc2)Cc2ccco2)ccc1Cl (configuration not stated),-1.44
Cc1ccc2oc(=O)c3cnn(CC(=O)N4CCN(c5cccc(C(F)(F)F)c5)CC4)c3c2c1,-0.98
COc1ccc(C(=O)c2cn(CC(=O)Nc3cc(OC)cc(OC)c3)c3ccc(OC)cc3c2=O)cc1,-1.36
Cc1nc(CCc2c(C)noc2C)n(CCc2ccccc2)n1,-1.8
CCOc1ccc(NC(=O)c2oc3ccccc3c2NC(=O)C(C)Oc2ccccc2)cc1 (configuration not stated),0.56
COc1ccccc1-n1cc(CNC(=O)N2CCCC2)cn1,-1.53
Cc1cc(NC(=O)CN2CCC(C(=O)NCc3ccccn3)CC2)no1,0.66
Cc1ccc(C(C)C)c(OCCCn2c(=O)oc3ccc(C)cc32)c1,-0.77
Cc1cccc(NC(=O)C2CCCN(c3nc4ccccc4s3)C2)c1C (configuration not stated),-1.47
Cc1c(-c2ccccc2)n(-c2ccccc2O)c2nc3c(c(=O)n(C)c(=O)n3C)n12,-1.85
CCOc1ccc(-n2nc3ccc(NC(=O)COc4ccccc4C)cc3n2)cc1,-2.77
COc1cccc(NC(=O)N(Cc2c[nH]c3ccccc23)C2CCCCCC2)c1,-0.07
Cn1nccc1C(=O)NC1CCOCC1Oc1ccc(C(=O)O)cc1 (configuration not stated),0.39
CCc1cccc(NC(c2ccccc2)c2nnc(-c3ccccc3F)o2)c1 (configuration not stated),0.6
Cc1ccc(Cc2cnc(NC(=O)c3ccc4c(c3)CC(c3ccccc3)OC4=O)s2)cc1 (configuration not stated),0.36
COc1ccc(NC(=O)c2ccc3c(SCC(=O)O)c4c(nc3c2)CCC4)c(OC)c1,-1.25
Cc1ccc(NC(=O)Cn2c(=O)n(Cc3ccc4c(c3)OCO4)c(=O)c3ccccc32)cc1,-3.38
Cc1ccc(-c2noc(CN(C3CCCCC3)S(=O)(=O)c3ccc(Cl)cc3)n2)cc1,0.15
CCn1c2ccccc2c2cc(NC(=O)COc3cc(C)c(Cl)c(C)c3)ccc21,-0.87
CCC(C(=O)NCc1cc(OC)ccc1OC)n1nc(C)c2sc3ccccc3c2c1=O (configuration not stated),-1.89

# High-throughput results: PubChem, ICCB-Longwood Screening Facility, Harvard Medical School

# A portion of the library (hit frequency here may not be typical).
